Screening results from PubChem.
H5N1 CPE: MDCK cell protection from H5N1 avian flu. cytopathic effect, luminescence, 72 h; stronger effect = higher value; no value below 0 was filed and about half of the inactive calls have no number; reference of the scale not given here. inhibition, % at 50 µM. 96,000 tested, 0.07% active. AID 740; in the data active = inhibition above about 25%
The depositor's hits bear a star; i = inactive. This is a subset (hit frequency here may not be typical).

The opening 8 records, ahead of the listing:
SMILES	H5N1 CPE
CCOC(=O)c1sc2nc(C)cc(C)c2c1NC(=O)c1ccco1	1.0
CCCCCCOc1ccc(CN2CCN(CC)CC2)cc1	i
COc1cccc(C2CC(C(F)(F)F)n3ncc(C(=O)NCc4ccco4)c3N2)c1 (configuration not stated)	1.6
O=C(CCS(=O)(=O)c1ccc(Br)s1)NCc1ccccc1	0.1
C=CCn1c(SCC(=O)NCc2ccccc2)nnc1-c1ccccc1O	i
O=c1cc(NCCO)c2ccccc2o1	0.1
O=C(CSCCSCC(=O)c1ccco1)c1ccco1	0.9
C=CCn1c(SCC(=O)NCC2CCCO2)nc2scc(-c3ccco3)c2c1=O (configuration not stated)	1.8

The list itself, from the start:
SMILES	H5N1 CPE
CCOC(=O)c1sc2nc(C)cc(C)c2c1NC(=O)c1ccco1	1.0
CCCCCCOc1ccc(CN2CCN(CC)CC2)cc1	i
COc1cccc(C2CC(C(F)(F)F)n3ncc(C(=O)NCc4ccco4)c3N2)c1 (configuration not stated)	1.6
O=C(CCS(=O)(=O)c1ccc(Br)s1)NCc1ccccc1	0.1
C=CCn1c(SCC(=O)NCc2ccccc2)nnc1-c1ccccc1O	i
O=c1cc(NCCO)c2ccccc2o1	0.1
O=C(CSCCSCC(=O)c1ccco1)c1ccco1	0.9
C=CCn1c(SCC(=O)NCC2CCCO2)nc2scc(-c3ccco3)c2c1=O (configuration not stated)	1.8
CN1c2ccccc2N(C)C1c1ccc2c(c1)OCO2	i
Oc1ccccc1C(=S)N1CCCCC1	i
O=c1c2ccccc2nc(-c2ccccc2)n1CCCN1CCOCC1	i
COC(=O)c1ccc(NC(=O)CS(=O)(=O)Cc2ccccc2)cc1	i
CC1(C(=O)NCc2cccnc2)CCC(=O)N1Cc1cccs1 (configuration not stated)	1.6
O=[N+]([O-])c1ccc(Oc2cccc(F)c2)c2ccncc12	3.2
COc1ccc(OC)c(NC(=O)Cc2coc3cc(C)cc(C)c23)c1	i
O=C(O)Cn1nnnc1-c1ccc(F)cc1	2.0
Cc1[nH]c2ccc(Br)cc2c(=O)c1CN1CCOCC1	i
N#Cc1ccc2ccn(CC(=O)N3CCCc4ccccc43)c2c1	1.0
O=C(O)C1CCCCN1S(=O)(=O)c1ccccc1 (configuration not stated)	i
NC(=O)Cn1c(=O)n(CCc2ccccc2)c(=O)c2c3c(sc21)CCCC3	2.5
Cc1cccc(NC(=S)NC(=O)CCc2ccccc2)c1	i
N=c1c2c(-c3ccccc3)c(-c3ccccc3)n(Cc3ccco3)c2ncn1CCN1CCOCC1	i
CCn1nnnc1SCC(=O)N1CCOCC1	i
O=C(Nc1ccccc1)NC1(C(=O)NCc2ccco2)CCCCC1	1.3
O=C(CCc1ccccc1)Nc1nc2ccc(S(=O)(=O)N3CCOCC3)cc2s1	1.2
O=C(O)COc1ccc(-c2nnn(Cc3ccccc3F)n2)cc1	i
O=C(Nc1cccc(C(=O)N2CCOCC2)c1)c1ncn[nH]1	i
COc1ccccc1Nc1nc(-c2sc(NC(=O)C(C)(C)C)nc2C)cs1	i
CC1CCN(CCCNC(=O)c2n[nH]c(=O)c3ccccc23)CC1	2.2
CCNC(=O)Cc1ccc(Br)cc1	i
COc1ccc(CCNC(=O)CCNS(=O)(=O)c2ccc3c(c2)CCN3C(C)=O)cc1OC	0.2
CCOc1ccc2c(C)c(Cl)c(=O)oc2c1	i
COc1ccc(N2CSC3=C(C#N)C(c4cc(OC)c(OC)cc4OC)CC(=O)N3C2)c(OC)c1 (configuration not stated)	0.8
COc1ccc(/C=N/NC(=O)CCCC(=O)NC2CCCCC2)cc1	1.2
O=C(c1ccco1)[C@@H]1[C@@H]2C(=O)N(c3ccc(F)cc3)C(=O)[C@@H]2C2c3ccccc3C=CN21 (some centres not stated)	i
CC(=O)Nc1cccc(S(=O)(=O)N2CCCCCC2)c1	0.2
COc1ccccc1NC(=O)CN1CCCCC1	i
O=S(=O)(c1cccc(-c2nc3n(n2)Cc2ccccc2-3)c1)N1CCCCC1	i
CCOC(=O)C1CCN(C(=O)CN(C)S(=O)(=O)c2cc(C)ccc2OC)CC1	0.1
CC(C)(C)NC(=O)Cn1nnc(-c2ccccc2NC(=O)c2cnccn2)n1	i
CCCCSc1ccc(NC(=O)c2cccnc2)cc1	i
CCOc1ccc(CN(C(=O)c2oc3ccccc3c2C)C2CCS(=O)(=O)C2)cc1 (configuration not stated)	2.4
Cc1ccccc1C(=O)NNC(=O)Cc1cccc2ccccc12	i
CC(=O)Nc1ccc(S(=O)(=O)N(C)c2ccc(O)cc2)cc1	0.0
COC(=O)CSc1nc2cc(Cl)ccc2c(=O)n1C1CCCC1	i
Cn1nc(-c2ccc(N3CCOCC3)c(NS(=O)(=O)c3ccccc3)c2)c2ccccc2c1=O	0.9
CCOC(=O)C(CC)/C(C)=N/NC(=O)c1ccc([N+](=O)[O-])cc1 (configuration not stated)	i
COc1ccc(CNc2cc([N+](=O)[O-])ccc2OC)cc1	i
COc1ccccc1CNC(=O)COC(=O)c1ccc(NC(N)=O)cc1	1.4
COc1ccc(NC2=NCCC(=O)N2Cc2cccs2)cc1	0.4
c1coc(C2Nc3ccccc3C3OCCC23)c1 (configuration not stated)	i
Cc1ccc(C(C)NC(=O)c2cc(C)oc2C)cc1 (configuration not stated)	i
Cc1ccc(CNC(=O)c2cccc(S(C)(=O)=O)c2)cc1	i
COc1ccc2[nH]c(=O)c(CN(Cc3ccc(C)cc3)Cc3nnnn3CC3CCCO3)cc2c1 (configuration not stated)	0.7
COc1ccc(-c2csc(NC(=O)C3CCCO3)n2)cc1 (configuration not stated)	0.2
Cc1cccc(N2C(=O)/C(=C/c3ccc(CN(CCC#N)S(C)(=O)=O)o3)C(=O)NC2=S)c1	i
CC1(C)Cc2c(sc(/N=C/N3CCCCC3)c2C#N)C(C)(C)N1	0.9
CCC(CC)C(=O)Nc1ccc(Sc2ccc([N+](=O)[O-])cc2)cc1	i
COc1ccc(CNC(=O)CSc2nnc(-c3ccc(NC(C)=O)cc3)n2C)cc1	i
COc1ccc(CNC(=O)C(c2ccco2)N(Cc2cccs2)C(=O)Cc2cccs2)cc1 (configuration not stated)	1.5

(further entries)
SMILES	H5N1 CPE
C=CCN1C(=O)C2C(C(=O)NC)C3(C)C=CC2(O3)C1C(=O)NCc1ccc(OC)cc1 (configuration not stated)	0.5
OCc1nc2ccccc2n1CCCOc1ccccc1	0.6
O=C(NNC(=O)C1COc2ccccc2O1)c1ccccc1 (configuration not stated)	1.1
COC(=O)C1C(c2ccccc2)C(C(=O)N2CCN(C)CC2)C1c1ccccc1 (configuration not stated)	i
O=C(OCc1ccc(COC(=O)c2ccccn2)cc1)c1ccccn1	i
COc1ccc(-c2noc(COc3ccccc3OC)n2)cc1OC	2.3
CCN1CCN(CCNC(=O)c2ccc(CS(=O)(=O)c3c(Cl)cccc3Cl)o2)CC1	0.5
COCCn1c(-c2ccc(OC)cc2)cnc1SCC(=O)Nc1cc(C)on1	0.4
N/C(=N\OC(=O)CC1CCCCC1)c1ccccn1	1.6
Cc1nc2nc(COc3ccccc3)nn2c(C)c1Cl	i
Cc1ccc(-c2nn3c(C)nnc3s2)cc1NC(=O)c1ccc(Br)o1	2.8
COc1cc(C)ccc1OCCCON1C(=O)CCC1=O	i
Cn1cnc([N+](=O)[O-])c1Nc1cccc(O)c1	i
COC(=O)c1cc2oc(C)cc2n1CC(=O)N1CCCc2ccccc21	0.8
C(=N\c1nccs1)/Nc1nccs1	2.5
Cc1ccc(-c2nc(C3CCCN(S(=O)(=O)c4ccc(C(C)(C)C)cc4)C3)no2)cc1 (configuration not stated)	0.1
CCN(C(=O)Cn1c(=O)oc2ccccc21)c1cccc(C(F)(F)F)c1	1.0
CCOc1ccc2nc3sc(C(=O)N4CCN(C)CC4)c(N)c3cc2c1	i
Clc1ccc(Cc2ccccc2)nn1	0.9
CCOC(=O)/C(C#N)=C/c1ccc(OC)c(OC)c1	i
Nc1nc(Nc2ccccc2)nc2ccccc12	i
Cc1n[nH]c(C)c1SCC(=O)Nc1ccc(F)cc1	0.9
O=C(CSc1nnc(SCC(=O)NCc2ccc3c(c2)OCO3)s1)NCc1ccc2c(c1)OCO2	0.4
Cc1nc(N2CCCCC2)c2ccsc2n1	0.5
C=CCn1c(C)c(C(C)=O)c(N2CCOCC2)nc1=S	i
Cc1nc2nc(C)n(-c3ccccc3)c2s1	i
COc1cccc(OC)c1C(=O)Nc1ccc2c3c(cccc13)CC2	1.1
COc1cc(C)nc(NCc2ccccc2)n1	i
CC(C)CCNC(=O)CCCOc1ccccc1	0.9
CCOC(=O)NC1C=CS(=O)(=O)C1 (configuration not stated)	0.3
Cc1ccc(-c2nc(CS(=O)CC(=O)N3CCN(c4ncccn4)CC3)c(C)o2)cc1 (configuration not stated)	0.9
O=C(c1ccc2snnc2c1)N1CCN(c2ccccn2)CC1	0.1
CCn1nc(C(=O)Nc2ccc(S(=O)(=O)Nc3nccs3)cc2)c2ccccc2c1=O	1.6
CCOC(=O)c1c(Nc2ccccc2N)cc(C)nc1C	i
CCOC(=O)C1=c2/c(=C/c3ccccc3OC)c(N)c(C#N)n2C(=O)C(c2ccccc2OC)S1 (configuration not stated)	i
O=C(CCSc1nnc2ccc3ccccc3n12)Nc1ccc(F)cc1	i
CC(C)c1ccc(N2C(=O)[C@@H]3Cc4ccccc4CN3C2=O)cc1	i
CCOC(=O)COc1ccccc1C1Nc2ccccc2C(=O)N1c1cccc(Cl)c1 (configuration not stated)	i
C/C(=N/NS(C)(=O)=O)c1ccc2ccccc2c1	i
O=C(NCCCN1CCOCC1)c1ccc(Cl)c(S(=O)(=O)N2CCCCCC2)c1	i
Cc1ccc2oc(=O)c3cnn(CC(=O)NCCC(C)C)c3c2c1	0.6
C=CCN1C(=O)/C(=C\c2ccc(Cl)cc2)N=C1SCC(=O)NC1CCCCC1	i
Cn1c(=O)c2c(nc(Oc3ccc4c(c3)OCO4)n2Cc2ccc(Cl)cc2)n(C)c1=O	i
CC(C)n1c(-c2ccc(C(C)(C)C)cc2)n[nH]c1=S	i
CC(=O)Nc1nonc1NC(=O)c1ccc(C(C)(C)C)cc1	1.6

Exported with bars between the fields: part of the list above
compound | H5N1 CPE
O=[N+]([O-])c1ccc(Oc2cccc(F)c2)c2ccncc12 | 3.2
COc1ccc(OC)c(NC(=O)Cc2coc3cc(C)cc(C)c23)c1 | i
O=C(O)Cn1nnnc1-c1ccc(F)cc1 | 2.0
Cc1[nH]c2ccc(Br)cc2c(=O)c1CN1CCOCC1 | i
N#Cc1ccc2ccn(CC(=O)N3CCCc4ccccc43)c2c1 | 1.0

Other results follow:
SMILES	H5N1 CPE
Cc1ccc(C2NC(=O)c3c(sc4c3CCN(C)C4)N2)s1 (configuration not stated)	i
CCOc1ccc(NC(=O)CSc2nnc(CCNC(=O)c3ccc(OC)cc3)n2CC)cc1	i
CC1(C)CC2CC(C)(CN2C(=O)COC(=O)c2ccc(Cl)cc2N)C1 (configuration not stated)	0.7
C=CCn1c(SCC(=O)c2ccc(Cl)s2)nc2ccccc2c1=O	i
C(=N\Nc1ncnc2sc3c(c12)CCC3)/c1cccs1	2.1
CCc1cc2c(NCc3ccco3)ncnc2s1	1.5
O=C(Nc1ccc(Cl)cc1)N1CCC(c2nc(-c3ccc(F)cc3)no2)CC1	0.4
CCOc1ccc2nc(NCCNS(=O)(=O)c3ccccc3)c(C#N)cc2c1	1.3
CCN(CC)C(=O)CN1C(=O)C2CC=C(Cl)CC2C1=O (configuration not stated)	i
CCN1C(=O)OC2(CCCCC2)C1(C)O (configuration not stated)	0.7
CCOC(=O)c1cc(NC(=O)c2cc(C)on2)cc(C(=O)OCC)c1	i
CC(C)C(=O)N1CCN(c2nc(-c3ccccc3)c3c(c2C#N)CC(C)(C)OC3)CC1	0.4
Nc1c(-c2ccc(F)cc2)cnc2ncnn12	0.3
Cc1onc(-c2c(Cl)cccc2Cl)c1C(=O)n1nnc2ccccc21	2.2
Cn1nc(N)c2c1N=P(N1CCOCC1)(N1CCOCC1)N=C2c1ccccc1	i
CCN(CC)c1ccc(C=N/C(C#N)=C(\N)C#N)cc1	i
CCSc1nnc(-c2cccc(S(=O)(=O)N(CC)CC)c2)n1Cc1ccccc1	i
CCSc1nnc([C@H](Cc2ccccc2)NC(=O)OC(C)(C)C)o1	27*
COc1cccc(NS(=O)(=O)CC23CCC(CC2=O)C3(C)C)c1 (configuration not stated)	3.0
CC(C)(C)n1nc2c(c1NC(=O)c1ccco1)CS(=O)C2 (configuration not stated)	1.7
COc1ccc(C(=O)CSc2nnc(-c3ccccc3)o2)cc1	1.7
CCc1nccn1C(=O)c1cnn2c(C(F)F)cc(-c3ccccc3)nc12	2.7
Cc1ccc(N(CC(O)Cn2c3ccccc3c3ccccc32)S(C)(=O)=O)c(C)c1 (configuration not stated)	i
COc1ccccc1N1CCN(C(c2ccc(C)cc2)c2nnnn2C(C)C)CC1 (configuration not stated)	0.9
CCCC(=O)c1cc(-c2nc3ccccc3n2C)n(C)c1	0.4
Nc1ccccc1C(=O)Nc1cccc(C(=O)O)c1	0.5
COc1ccc(-c2noc(CN(C)S(=O)(=O)c3ccc(Cl)cc3)n2)cc1OC	i
Cc1cc(C)n(-c2nc3ccccc3c(=O)n2OC2CCCCC2)n1	i
Cc1c(-c2nnnn2-c2ccc(F)cc2)cnc2cc3c(cc12)OCO3	0.3
COc1ccc(C)cc1NC(=O)CN1CCN(S(=O)(=O)c2ccc(C(C)C)cc2)CC1	i
O=C(O)c1ccc(CNCc2cccc(Cl)c2Cl)cc1	0.4
Nn1c(SCC(=O)NC(=O)NC2CCCC2)nnc1-c1ccccc1F	0.6
Cc1cc(Nc2c(C)n(C)n(-c3ccccc3)c2=O)n2c(nc3ccccc32)c1C#N	0.1
CCCC(=O)c1ccc(N2CCN(C(=O)OCC)CC2)c(F)c1	1.7
CC1=CC(C)(C)N(C(=O)CSc2nnc(N)s2)c2c(C)cc(C)cc21	0.7
Cc1cccc(Nc2nc(N3CCCC3)nc(N3CCCC3)n2)c1	1.4
